KCNQ2 inh = KCNQ2 potassium channel inhibitors, primary screen, cell-based, CHO-K1, FluxOR thallium flux, B-score (AID 2156); Potassium voltage-gated channel subfamily KQT member 2 (Rattus norvegicus), O88943; 20 min; active compounds read low; only compounds with negative scores are shown here; some inactives read as strong as hits; 1.1% of 310,000 active; B-score at 10 µM;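 active = fluorescence ratio B-score at most minus 3 library SDs, with starting brightness B-score within 2 library SDs, cut at about -5.5 in these data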
Target sequence (O88943 whole entry, looked up): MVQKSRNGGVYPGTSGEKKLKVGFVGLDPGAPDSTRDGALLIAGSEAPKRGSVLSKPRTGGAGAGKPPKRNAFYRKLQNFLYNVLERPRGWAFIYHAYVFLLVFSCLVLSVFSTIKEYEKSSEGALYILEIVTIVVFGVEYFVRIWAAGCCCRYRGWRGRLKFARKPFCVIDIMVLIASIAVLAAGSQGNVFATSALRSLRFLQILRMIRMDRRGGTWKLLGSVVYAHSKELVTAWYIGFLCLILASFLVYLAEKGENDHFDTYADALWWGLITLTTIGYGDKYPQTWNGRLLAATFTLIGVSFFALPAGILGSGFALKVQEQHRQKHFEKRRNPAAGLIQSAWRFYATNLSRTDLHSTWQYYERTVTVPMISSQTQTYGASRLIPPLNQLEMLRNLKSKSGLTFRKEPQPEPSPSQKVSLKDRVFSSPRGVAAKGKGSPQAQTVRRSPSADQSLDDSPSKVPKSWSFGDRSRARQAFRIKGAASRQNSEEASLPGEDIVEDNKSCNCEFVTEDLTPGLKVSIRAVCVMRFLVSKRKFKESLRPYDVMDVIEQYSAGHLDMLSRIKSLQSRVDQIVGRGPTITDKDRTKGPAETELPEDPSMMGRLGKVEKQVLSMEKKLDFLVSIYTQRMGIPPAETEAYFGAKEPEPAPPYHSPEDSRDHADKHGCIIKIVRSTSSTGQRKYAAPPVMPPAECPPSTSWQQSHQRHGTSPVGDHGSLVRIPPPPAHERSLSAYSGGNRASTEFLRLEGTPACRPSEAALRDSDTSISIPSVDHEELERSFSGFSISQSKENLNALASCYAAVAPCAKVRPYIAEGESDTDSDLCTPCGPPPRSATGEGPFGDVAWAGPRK
KCNQ2 inh baseline = recorded beside KCNQ2 inh, whose call it bears; B-score; measured here: initial fluorescence intensity artifact check;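 brightness before thallium and not channel activity; 0 = typical well and far values either way flag optical interference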
* marks the source's active call; other numbers are inactive results; i = inactive.

entry	KCNQ2 inh	KCNQ2 inh baseline	Compound
1	i	0.09	S=C1NC(C23CC4CC(CC(C4)C2)C3)=CC(c2ccc3c(c2)OCO3)N1 (stereo not drawn)
2	i	-0.74	Cc1cc(C(F)F)nn1CC(=O)NCc1ccccc1F
3	i	0.83	O=C(Cn1cnc2ccccc21)Nc1cc(C(F)(F)F)ccc1N1CCOCC1
4	i	3.05	CC(c1nnc(SCC(=O)N2CC(=O)Nc3ccccc32)n1Cc1ccccc1)N(C)C (stereo not drawn)
5	i	0.12	Cc1ccc(C(=O)COC(=O)c2cc(Cl)nc3ccccc23)cc1
6	i	-2.42	O=C(Cc1ccccc1)Nc1ccc(NC(=O)C2CC2)nc1
7	i	-1.55	COc1ccccc1N1CCN(C(=O)C2CCN(C(=O)c3cccc(Cl)c3)CC2)CC1
8	i	-1.31	O=C(Nc1ccc2c(c1)OCO2)C1Cc2ccccc2CN1S(=O)(=O)c1cccs1 (stereo not drawn)
9	i	0.49	O=C(CCCCn1c(=O)c2ccccc2n(CC(=O)Nc2ccc(F)cc2)c1=O)NCc1ccco1
10	i	-0.01	COc1ccc(-n2nnnc2/C=C\Nc2ccccc2C(=O)c2ccccc2)cc1
11	i	0.01	O=C(NCCc1ccc(Cl)cc1)c1ccc(CS(=O)Cc2ccc(Cl)cc2)o1 (stereo not drawn)
12	i	1.59	CCn1cc(S(=O)(=O)c2ccc(C)cc2)[nH]c1=O
13	i	-0.68	Oc1c(/C=C/C=C/C=Nc2ccccc2)sc(=S)n1Cc1ccccc1
14	i	0.3	CNC(=O)CC1C(=O)N(C)C(=S)N1NC(=O)c1ccc(Cl)cc1 (stereo not drawn)
15	i	-0.61	CCOC(=O)C(=CNc1nc(-c2ccc3ccccc3c2)cs1)C(=O)OCC
16	i	-0.01	C=CCN(C(=O)CNC(=O)c1ccco1)C(C(=O)NC1CCCCC1)c1ccc(F)cc1 (stereo not drawn)
17	i	0.38	CCn1ccnc1C(O)c1cccc(OC)c1OC (stereo not drawn)
18	i	-0.01	O=C(/C=C/c1ccc(-c2ccccc2)cc1)NCc1cccnc1
19	i	0.86	CC(=O)N1CCN(c2ccc([N+](=O)[O-])cc2C#N)CC1
20	-7.98*	-0.09*	CC(Sc1nc2cc([N+](=O)[O-])ccc2n1-c1ccc(F)cc1)C(=O)NCc1ccc2c(c1)OCO2 (stereo not drawn)
21	i	0.7	Cc1ccc(-c2onc(C)c2C)cc1S(=O)(=O)N1CCOc2ccccc21
22	i	-1.38	COc1cccc(CNC(=O)CCC2CCCN(c3cc(C)nc(N(C)C)n3)C2)c1 (stereo not drawn)
23	i	1.22	CCN1CCN(c2oc(-c3ccco3)nc2C#N)CC1
24	i	-0.05	CC(=O)c1ccc(C(=O)N2CCCC(CNC(=O)c3ccccc3Cl)C2)cc1 (stereo not drawn)
25	i	-0.02	CSCCC(C(=O)N1CC2(C)CC1CC(C)(C)C2)N1C(=O)c2ccccc2C1=O (stereo not drawn)
26	i	-1.35	CC1(C)C/C(=N\NC(=S)Nc2ccccc2F)c2cc(O)ccc2O1
27	i	-0.22	C[C@H]1COc2c(C3(N)CC3)c(F)cc3c(=O)c(C(=O)O)cn1c23
28	i	1.26	CN(Cc1cn(-c2ccccc2)nc1-c1ccc2c(c1)OCO2)Cc1nccn1C
29	i	-0.47	CCO[C@@H]1OC(C(=O)NCc2nc3ccccc3[nH]2)=C[C@H](c2ccc(C(F)(F)F)cc2)[C@H]1CCCO
30	i	0.69	Cc1ccc(NC(=O)CSCC(=O)Nc2cc(Cl)ccc2N2CCN(C)CC2)cc1
31	i	0.5	CCN(C(=O)CSc1ncccc1C(=O)Oc1cccc([N+](=O)[O-])c1)c1cccc(C)c1
32	i	-2.41	O=C1CCCC/C1=N\Nc1ccc(C2CCCCC2)cc1
33	i	0.83	CCOC(=O)C(O)(CC(=O)Nc1cc(F)ccc1C)C(F)(F)F (stereo not drawn)
34	i	-0.89	CC(C)CC(=O)NC(=S)Nc1ccccc1F
35	i	0.65	O=C(CC(=O)N/N=C/c1c(F)cccc1Cl)NCc1ccccc1
36	i	1.09	Clc1ccc(-c2csc(N/N=C/c3ccc4c(c3)OCO4)n2)cc1
37	i	2	O=S(=O)(Nc1ccncc1)c1ccc(Cl)cc1
38	i	-0.28	CN1C(=S)SC(C)(NO)C1(C)C (stereo not drawn)
39	i	1.13	COc1nc(Nc2ccc([N+](=O)[O-])cc2)nc(NC2CCCCC2)n1
40	i	0.51	O=C(CSCc1ccc(Br)cc1)Nc1ccccc1C(=O)N1CCOCC1
41	i	-0.5	CS(=O)(=O)N1CCC(C(=O)NCc2ccc(Cl)cc2)CC1
42	i	-0.05	O=C(CSc1nnc(-c2ccco2)o1)Nc1ccccc1Cl
43	i	-0.69	N#CC(C(=O)C12CC3CC(CC(C3)C1)C2)c1nc2ccccc2[nH]1 (stereo not drawn)
44	i	0.91	CCCc1nc2ccccc2c(C(=O)OCC(=O)Nc2c(C)n(C)n(-c3ccccc3)c2=O)c1CC
45	i	0.4	c1ccc(CCNc2nc(-c3ccncc3)nc3ccccc23)cc1
46	i	-2.45	CSc1ccc(CCNC(=O)CN2C(=O)CCSc3ccccc32)cc1
47	i	-0.45	Cc1cc(-c2ccccc2)c2nncn2n1
48	i	1.05	O=c1[nH]cnc(O)c1C(c1ccc([N+](=O)[O-])cc1)c1c(O)nc[nH]c1=O
49	i	0.58	CCOc1ccccc1C1CC(=O)Nc2cc(OC)c(OC)c(OC)c21 (stereo not drawn)
50	-5.97*	-1.38*	Cc1cc(C)c(NC(=O)/C(=C/c2ccco2)c2ccccc2)c(C)c1
51	i	-0.47	COc1ccccc1Oc1cc(C#N)c(C#N)cc1-n1nnc2ccccc21
52	i	0.03	Nc1nnnn1/N=C/C=C/c1ccccc1
53	i	1	COCCn1c(C)cc(C(=O)CSc2ncnc3sc4c(c23)CCC4)c1C
54	i	0.54	CCCCC[C@H](O)/C=C/[C@@H]1[C@@H](C/C=C\CCCC(=O)O)[C@H]2CO[C@@H]1C2
55	i	-0.15	COP(=O)(OC)C(NC(=O)Nc1ccccc1)c1ccccc1 (stereo not drawn)
56	i	0.17	CSc1nn(-c2ccc(C(=O)OCC(=O)NC(=O)NC(C)C)cc2)c(=S)s1
57	i	-0.03	O=C(CNS(=O)(=O)c1ccc2ccccc2c1)OCc1nnc(-c2ccccc2)o1
58	i	-1.52	CCNC(=S)N(Cc1cc2c(C)ccc(C)c2[nH]c1=O)C1CCCC1
59	i	0.77	Cc1ccc(CN2C(=O)C(=O)N(CC(N)=O)C2=O)cc1
60	i	-0.14	Cc1ccc(NC(=O)N2C3CCCC2CC(NC(=O)C2CC2)C3)cc1 (stereo not drawn)

Other structures.
entry	KCNQ2 inh	KCNQ2 inh baseline	Compound
61	i	-0.37	Cc1nn(C)c(=O)n1-c1ccc(OCc2ccccc2)cc1
62	i	0.46	Cc1c(NC(=O)CC2NC(=O)NC2=O)c(=O)n(-c2ccccc2)n1C (stereo not drawn)
63	i	0.74	CCn1cc(/C=C2/SC(=S)NC2=O)c(C)n1
64	i	0.55	O=C(NC1CCCCC1)c1cc(S(=O)(=O)N2CCCC2)ccc1Cl
65	i	5.7	CC1C/C(=C/c2cccn2C)C(=O)/C(=C/c2cccn2C)C1 (stereo not drawn)
66	i	-0.11	COc1ccc(/C(C)=N/Nc2cccc(C(=O)O)c2)cc1OC
67	i	-0.8	CCOc1ccc(NC(=O)CSc2nnc(Cc3ccccc3)c(=O)n2N)cc1
68	-8.55*	1.71*	Cc1ccc(C(=O)C(c2ccccc2)N2Cc3ccccc3C2=N)cc1 (stereo not drawn)
69	i	0.13	O=[N+]([O-])c1ccc(Sc2ccccc2)nc1
70	i	0.23	COc1ccc(Nc2nc(-c3cccs3)nc3ccccc23)cc1S(=O)(=O)N1CCOCC1
71	i	0.54	COc1cc(/C=N/NC(=O)c2cccc(S(=O)(=O)N3CCCC3)c2)cc(OC)c1O
72	i	-0.82	Cc1ccc(C)c(NC(=O)NCCN2CCCCC2)c1
73	i	2.99	CCOC(=O)Cc1csc(NC(=O)c2sc3nc4cc(C)ccc4cc3c2N)n1
74	i	2.31	CC(CN1CCOCC1)OC(=O)C(C)(c1ccccc1)c1ccccc1 (stereo not drawn)
75	i	-0.71	CCOC(=O)C1CCCN(C(=O)c2sc3nc(-c4ccc(F)cc4)cn3c2C)C1 (stereo not drawn)
76	i	-0.02	CC(C)(C)c1ccc(-c2nn(CCC#N)cc2/C=N/O)cc1
77	i	-0.44	CC(C)O/N=C1\C(=O)N(c2ccccc2)c2ccccc21
78	i	-0.11	Cn1c(N)c(C(=O)COC(=O)c2cc(-c3ccco3)nc3ccccc23)c(=O)n(Cc2ccccc2)c1=O
79	i	-0.07	NC(=O)c1ccc(NCC2CCCO2)c([N+](=O)[O-])c1 (stereo not drawn)
80	i	1.64	Cc1onc(-c2ccccc2)c1C(=O)OCCOc1ccccc1F
81	i	-0.67	CCCC12C(=O)C(C)(C(c3ccccc3)=C1c1ccccc1)C1C(=O)N(c3ccc(C)cc3)C(=O)C12 (stereo not drawn)
82	i	-0.75	COc1cc(/C=N/NC(=O)c2ccc(CN3C(=O)c4cccc5cccc3c45)cc2)cc(OC)c1O
83	i	0.29	CN(C)S(=O)(=O)c1cccc(-c2nnc3n2CCCCC3)c1
84	i	1.37	CCCCn1c(N)c(N(CCOC)C(=O)c2cc(-c3ccc(F)cc3)nc3ccccc23)c(=O)[nH]c1=O
85	i	-0.7	Cc1ccc(NC(=O)CCNC(=O)c2ccco2)cc1Cl
86	i	-1.95	COc1cccc(CNCCc2c[nH]c3ccccc23)c1OCc1ccccc1
87	i	1.35	CC(=O)N1c2ccccc2N(Cc2ccc(C)cc2C)C(=O)C1(C)C
88	i	0.3	O=C(c1ccccc1)N1CCN(c2ncnc3c(-c4ccccc4)nsc23)CC1
89	i	-0.6	Cc1sc(NC(=O)Cn2nc(C(F)(F)F)cc2C)c(C(=O)OC(C)C)c1C
90	i	0.12	COc1ccc(C2N=C(c3ccccc3)NC(c3ccccc3)=N2)cc1
91	i	1.12	COc1ccc(CCNC(=O)CS(=O)Cc2nc(-c3cccs3)oc2C)cc1OC (stereo not drawn)
92	i	-1.29	CC(=O)N(CCCNC(=O)c1ccccc1)C(=O)c1ccccc1
93	i	-1.92	CN(C(=O)Cc1c[nH]c2ccccc12)C(C(=O)Nc1ccc2c(c1)OCO2)c1ccccc1 (stereo not drawn)
94	i	0.78	CCOC(=O)CSCc1csc(CC(=O)Nc2ccccc2C)n1
95	i	1.26	COC(=O)c1ccccc1NC(=O)CN(C)S(=O)(=O)c1cc(C)ccc1OC
96	i	-1.48	CCOC(=O)c1cc(-c2ccccc2)sc1NC(=O)COC(=O)c1cccc(S(N)(=O)=O)c1
97	i	-0.39	CCOc1ccc(NC(=O)CN(C)C(=O)c2sc3ccccc3c2Cl)cc1OCC
98	i	2.02	Cc1cc(C)nc(Nc2ccccc2Cl)n1
99	i	-0.66	CCc1nc(SCC(=O)Nc2cc(OC)ccc2OC)c2c(C)c(C)sc2n1
100	i	1.87	Cc1ccc(Nc2nc3ccccc3[nH]2)nc1
101	i	-0.13	COc1ccc(N2CCN(c3ncnc4scc(-c5ccccc5)c34)CC2)cc1
102	i	1.28	CC(NC1CCCC1)C(=O)Nc1ccccc1-c1ccccc1 (stereo not drawn)
103	i	0.07	COc1ccc(S(=O)(=O)NCCOc2ccccc2)cc1F
104	i	1.93	CNc1ccncc1S(=O)(=O)NC
105	i	-0.59	CC1CCCC/C1=N\NC(=S)Nc1ccccc1 (stereo not drawn)
106	i	-0.59	Cc1ccc(OCC(O)Cn2c3ccccc3c3ccccc32)cc1 (stereo not drawn)
107	i	-2.76	COc1ccccc1C(=O)N1CCNC(=O)C1CC(=O)Nc1ccc(Cl)cc1 (stereo not drawn)
108	i	0.56	O=C(Nc1ccc(O)cc1C(=O)O)c1ccc2c(c1)C(=O)N(Cc1ccco1)C2=O
109	i	1.1	COCCn1cnc2c1c(=O)n(CC(=O)NN)c(=O)n2Cc1ccccc1
110	i	2.74	Cc1cccc(N(C(=O)CNC(=O)c2ccco2)C(C(=O)NC2CCCC2)c2ccncc2)c1 (stereo not drawn)
111	i	-2.66	O=C(CCc1ccccc1)N1CCN(c2ccccc2F)CC1
112	i	-0.69	COc1ccc(NC(=O)Cn2nnc(C(=O)NCc3ccc(C)cc3)c2N)cc1OC
113	i	-2.1	CN1CCC(N(C)C(=O)CNC(=O)c2ccc(C(C)(C)C)cc2)CC1
114	i	-0.15	O=C(CSc1cccc2cccc(Cl)c12)NC1=NCCS1
115	i	0.82	COc1ccc(C(C(=O)NC2CCCCC2)N(C(=O)Cc2c[nH]c3ccccc23)c2ccccc2)cc1OC (stereo not drawn)

Source: PubChem

Some of the compounds tested. The share of hits here may be higher or lower than overall.
